# Assay outcomes from PubChem.
# PKD1 kinase inh – inhibitors of human PKD1 kinase, biochemical, fluorescence polarization; Serine/threonine-protein kinase D1 (Homo sapiens), Q15139; PKD1 kinase fluorescence polarization assay; inhibition, %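 (about 10 µM by stock and volumes)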; 200,000 compounds, 0.056% hits; AID 797, 2007;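 active = inhibition of 50% or more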;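 note: controls were vehicle for no effect and a reference inhibitor for full effect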
# RGS16-Gao HTS – modulators of RGS16 binding to Galphao, primary screen, biochemical, human proteins, multiplexed bead flow cytometry; 220,000 compounds, 0.38% hits; Regulator of G-protein signaling 16 (Homo sapiens) + Guanine nucleotide-binding protein …; binding response (% of control), % at 10 µM; AID 1441, 2008; bead-based flow cytometry RGS16-Galphao binding, fluorescence; actives lie on both sides;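 active = below 25% or above 175%, edge rows of some plates excepted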;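 note: Galphao activated by GDP with aluminum fluoride before binding; 100% = wells without compound and 0% = beads without RGS; some results beyond the cut were filed as inactive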
# Target sequence (O15492 whole entry, looked up): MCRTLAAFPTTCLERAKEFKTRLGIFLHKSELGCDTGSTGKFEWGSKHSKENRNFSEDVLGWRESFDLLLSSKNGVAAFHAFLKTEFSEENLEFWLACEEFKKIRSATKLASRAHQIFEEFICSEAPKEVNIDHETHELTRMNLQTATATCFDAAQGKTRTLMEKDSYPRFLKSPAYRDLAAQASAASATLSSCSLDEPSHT
# Target sequence (P09471 whole entry, looked up): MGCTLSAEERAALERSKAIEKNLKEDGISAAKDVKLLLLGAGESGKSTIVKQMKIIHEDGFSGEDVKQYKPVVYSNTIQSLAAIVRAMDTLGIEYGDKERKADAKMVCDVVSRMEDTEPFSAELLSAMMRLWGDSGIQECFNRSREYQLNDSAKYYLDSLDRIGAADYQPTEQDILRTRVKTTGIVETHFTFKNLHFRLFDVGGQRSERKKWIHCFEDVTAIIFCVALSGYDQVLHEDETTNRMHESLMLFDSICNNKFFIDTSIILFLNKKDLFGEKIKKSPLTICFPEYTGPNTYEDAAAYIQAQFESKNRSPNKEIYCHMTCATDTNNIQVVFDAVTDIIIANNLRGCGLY
# HSV augment – enhancers of HSV replication in host cells, fold increase, host cell viability; HSV replication augmentation in cells; maximum fold increase; 220,000 compounds, 0.005% hits; AID 1956, 2009;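 active = peak rise of 1.5-fold or more in the series; tested in PC3 cells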;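 note: first round at 10 µM; read as green reporter fluorescence; hits show the peak of a series up to 25 µM; 1 = signal of infected wells without compound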
# INS promoter inh – inhibitors of insulin promoter-driven GFP, primary screen, imaging, TRM-6 cells (human fetal islet line), eGFP reporter, cell count. inhibition, % at 2 µM. reporter expression induced with tamoxifen. 130,000 compounds, 0.9% hits;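 active = inhibition above the mean plus 3 SD, with well images judged a real hit on visual review, cut at about 60% in these data, passing the limit was not always enough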
# GALR2 agonist – GALR2 receptor agonists, primary screen, cell-based; Galanin receptor type 2 (Homo sapiens), O43603; GALR2-expressing cells, agonist activation read-out; activation, %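 (tested at 5 µM)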; 140,000 compounds, 0.48% hits;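 active = above mean plus 3 SD of all compounds, about 5% in these data, not always enough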;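 note: 0% = vehicle buffer wells and 100% = reference agonist at full effect; tested in CHO reporter cells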
# Target sequence (O43603 whole entry, looked up): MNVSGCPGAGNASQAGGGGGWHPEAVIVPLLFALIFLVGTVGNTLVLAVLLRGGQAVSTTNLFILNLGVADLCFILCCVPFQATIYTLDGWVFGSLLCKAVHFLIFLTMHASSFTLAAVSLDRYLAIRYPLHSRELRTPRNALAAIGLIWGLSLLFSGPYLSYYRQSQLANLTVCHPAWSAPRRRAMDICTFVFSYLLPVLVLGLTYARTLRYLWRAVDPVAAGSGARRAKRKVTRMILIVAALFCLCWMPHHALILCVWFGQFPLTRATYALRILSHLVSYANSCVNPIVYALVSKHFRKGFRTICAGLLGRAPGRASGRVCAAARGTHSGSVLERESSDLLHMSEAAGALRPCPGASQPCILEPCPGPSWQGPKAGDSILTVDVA
# INS promoter inh cell count – second read-out of INS promoter inh, no call of its own (marks repeat the call); normalized cell count, %; measured here: cell count, toxicity; reference of the scale not given here;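 cells exposed to compound for 48 h; stained nuclei by imaging scaled within each plate; lower means fewer cells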
# HSV augment primary fold – recorded beside HSV augment, whose call it bears; fold increase; compound at 10 µM; measured here: primary screen fold increase 10 uM; tested in PC3 cells;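 GFP signal in the first replicate; 1 = infected wells without compound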
# * hit, by the source's call; i = inactive; x = no result given.
SMILES,PKD1 kinase inh,RGS16-Gao HTS,HSV augment,HSV augment primary fold,INS promoter inh,INS promoter inh cell count,GALR2 agonist
Cc1ccc(/C=N/NC(=O)CNC(=O)Cc2ccccc2)o1,7,100,i,1.1,x,x,-0.3
COc1cc(C(=O)N/N=C(\C)Cn2nc([N+](=O)[O-])cc2C)ccc1O,4,99,i,0.82,-7,104,-0.7
O=C(NCc1cccnc1)NC1(c2ccccc2)CC1,-5,100,i,0.87,x,x,-1.6
CCC/C(O)=C1\C(=O)CC(c2ccccc2)CC1=NC(C)C(=O)O (stereo unspecified),-12,100,i,0.86,18,114,-2.0
N#C/C(=C(O)\C=C\c1ccccc1)c1nc2ccccc2[nH]1,x,97,i,0.9,x,x,x
Cc1cc2nc(=O)c(/C=C3\C=Nc4ccccc43)c(N)n2o1,x,97,i,1,x,x,x
CCCCC(=O)Nc1cc(OCC)c(NC(=S)NC)cc1OCC,0,105,i,0.98,x,x,x
COc1cc(/C=C2/NC(=O)N(CC(=O)Nc3ccc(C)cc3)C2=O)ccc1Oc1ccc([N+](=O)[O-])cn1,2,98,i,0.92,x,x,x
Cc1ccccc1-c1nn(-c2ccc(F)cc2F)cc1CNCC(C)O (stereo unspecified),-4,114,i,0.8,5,86,x
O=C(NCc1ccccc1)c1cccc(F)c1F,-3,107,i,1,15,81,x
O=c1cc(CSc2ccccn2)c2ccccc2[nH]1,-4,103,i,0.83,38,126,-3.1
COc1ccccc1NC(=O)CCNC(=O)Cn1ccc2ccccc2c1=O,-5,101,i,0.86,x,x,-3.0
COc1cc([N+](=O)[O-])ccc1N=Nc1c(N)[nH]n(-c2ccccc2)c1=O,-4,102,i,0.99,20,116,x
CCCS(=O)(=O)N1CCC(C(=O)NCCC(C)C)CC1,3,103,i,0.94,x,x,x
Cc1cc(N(CN2CCCC2=O)C(=O)c2ccccc2)no1,-12,92,i,1,x,x,-1.5
COC1(C)CC2C(CC1OC(=O)c1cc([N+](=O)[O-])cc([N+](=O)[O-])c1)C2(C)C (stereo unspecified),3,64,i,1,x,x,-1.1
FC(F)(F)c1cnc(Oc2ccccc2-c2nnco2)c(Cl)c1,-7,104,i,0.9,7,100,-1.1
O=C(CSc1nnc(NCc2ccccc2)s1)N1CCOCC1,-1,100,i,0.94,50,142,-0.3
CCN(C(=O)COC(=O)c1cc(-c2ccccc2)nc2ccc(Br)cc12)C1CCS(=O)(=O)C1 (stereo unspecified),0,101,i,0.94,x,x,x
COc1ccc(-c2cc(C(F)(F)F)nc(-n3ccnc3)n2)cc1,-3,101,i,0.94,-25,166,x
O=C(COC(=O)c1ccc(O)cc1)Nc1ccc(N2CCCCC2)cc1,1,98,i,0.99,13,95,-1.7
COc1ccc(C(c2nnnn2Cc2ccc(F)cc2)N2CCN(c3ccc(OC)cc3)CC2)cc1 (stereo unspecified),-17,96,i,0.9,x,x,-0.2
CCOc1ccc(N/C=C\C(=O)c2ccc3c(c2)OCO3)cc1,-3,37,i,0.95,38,125,-1.0
COc1ccc(NC(=O)c2cccnc2Sc2ccccc2)c(OC)c1,-4,104,i,0.82,-14,114,-0.9
Cn1c(SCc2cccc(C(F)(F)F)c2)nnc1-c1ccco1,-9,98,i,1,x,x,1.5
O=C(Nc1ccc(Cl)c(Cl)c1)N(Cc1cccnc1)Cc1ccco1,-1,102,x,x,x,x,-2.6
CN1CCN(C(=O)CN(CCc2ccccc2)S(C)(=O)=O)CC1,-5,101,i,1.1,20,97,-1.2
COc1ccc(NC(=O)C2CCCN(S(=O)(=O)c3cccc4cccnc34)C2)c(OC)c1 (stereo unspecified),-2,131,i,0.92,x,x,-2.6
CC(C)CN(C(=O)CSc1nnc2ccccn12)c1c(N)n(CC(C)C)c(=O)[nH]c1=O,3,101,i,0.92,-12,115,-3.6
CC1CCCN(CCC(=O)c2ccc(Br)cc2)C1 (stereo unspecified),-1,66,i,0.85,-11,156,0.3

# Molecules listed so far with a CF3 group:
SMILES,PKD1 kinase inh,RGS16-Gao HTS,HSV augment,HSV augment primary fold,INS promoter inh,INS promoter inh cell count,GALR2 agonist
FC(F)(F)c1cnc(Oc2ccccc2-c2nnco2)c(Cl)c1,-7,104,i,0.9,7,100,-1.1
COc1ccc(-c2cc(C(F)(F)F)nc(-n3ccnc3)n2)cc1,-3,101,i,0.94,-25,166,x
Cn1c(SCc2cccc(C(F)(F)F)c2)nnc1-c1ccco1,-9,98,i,1,x,x,1.5

# Three entries from above, arranged by number of heavy atoms, falling:
SMILES,PKD1 kinase inh,RGS16-Gao HTS,HSV augment,HSV augment primary fold,INS promoter inh,INS promoter inh cell count,GALR2 agonist
COc1ccc(NC(=O)c2cccnc2Sc2ccccc2)c(OC)c1,-4,104,i,0.82,-14,114,-0.9
FC(F)(F)c1cnc(Oc2ccccc2-c2nnco2)c(Cl)c1,-7,104,i,0.9,7,100,-1.1
O=C(NCc1ccccc1)c1cccc(F)c1F,-3,107,i,1,15,81,x

# Continuation.
SMILES,PKD1 kinase inh,RGS16-Gao HTS,HSV augment,HSV augment primary fold,INS promoter inh,INS promoter inh cell count,GALR2 agonist
COc1ccc(Cn2c3ccc(OC)cc3c3nc4ccccc4nc32)cc1,-8,101,i,1.2,x,x,-1.7
Cc1ccc(NC(=S)NCC2CCN(C(C)c3ccccc3)C2)cc1 (stereo unspecified),4,100,i,0.76,x,x,x
CCCn1c(SCC(=O)Nc2nc3ccccc3s2)nc2c1c(=O)n(C)c(=O)n2C,-8,116,i,1,31,77,-2.2
COc1ccc2cc(CCNC(=O)C3CC3)c(=O)[nH]c2c1,5,100,x,x,36,120,-0.7
Cc1ccc(NC(=O)COC(=O)c2sccc2C)cc1S(=O)(=O)N1CCOCC1,-8,106,i,0.88,x,x,-0.7
CC(=O)Oc1ccc(-c2cccc(C(=O)NCCCO)c2)cc1,-6,110,i,0.83,29,136,-0.6
CCN1C(=O)/C(=C2\SC(=S)N(NC(=O)c3ccccc3O)C2=O)c2ccccc21,x,105,i,0.99,x,x,x
CCc1c(C)sc2nc3c(C(=O)N4CCOCC4)cc(C(=O)c4ccccc4O)cn3c(=O)c12,-8,97,i,0.99,x,x,x
CC1(C)Oc2ccc(C(=O)NC3CCCC3)cc2N(CC(=O)N2CCOCC2)C1=O,-1,98,i,0.94,x,x,-0.3
O=C(CSCCc1ccccn1)Nc1cccnc1,-8,99,i,0.94,x,x,-1.9
Cc1ccc(CSc2ncccc2C(=O)O)cc1,-1,97,i,0.73,-39,97,-2.6
COC(=O)CCc1sc(Nc2ccc(Br)cc2)nc1-c1ccc(OC)cc1,-2,102,i,0.95,-55,84,1.4
C/C(=N\NC(=O)c1ccc2c(c1)OCO2)c1ccc(O)cc1,x,104,i,0.86,x,x,x
O=C(Nc1ccccc1N1CCCC1)c1ccc2c(c1)OCO2,0,110,i,0.88,4,124,-0.6
CCOC(=O)C1=C(SCC(=O)Nc2ccccc2)NC(=O)C(C#N)C12CCCCC2 (stereo unspecified),-2,102,i,0.94,0,104,-0.2

# 3 of the entries above in order of the PKD1 kinase inh value, high to low:
SMILES | PKD1 kinase inh
COc1ccc2cc(CCNC(=O)C3CC3)c(=O)[nH]c2c1 | 5
O=C(Nc1ccccc1N1CCCC1)c1ccc2c(c1)OCO2 | 0
CCCn1c(SCC(=O)Nc2nc3ccccc3s2)nc2c1c(=O)n(C)c(=O)n2C | -8

# Remaining list, next part
SMILES,PKD1 kinase inh,RGS16-Gao HTS,HSV augment,HSV augment primary fold,INS promoter inh,INS promoter inh cell count,GALR2 agonist
COCc1cc(C)nc(OCC(=O)N/N=C/c2ccco2)c1C#N,-1,109,i,0.98,0,116,-0.3
CCOc1cc(C)c(Cl)cc1S(=O)(=O)NCc1ccco1,5,103,i,0.98,-375,43,-2.9
O=S(=O)(c1cc(Cl)ccc1Cl)N1CCNCC1,-4,98,i,0.96,12,110,-1.0
C/C(=N\OC(=O)c1ccc(OC(C)C)cc1)c1ccc(C)c(C)c1,-10,103,i,1.1,-11,137,-2.4
O=C(OCC(=O)N1CCN(C(=O)c2ccco2)CC1)c1ccc(S(=O)(=O)N2CCCCC2)cc1,4,101,i,0.94,x,x,-1.7
CCC1CCCCN1C(=O)CSc1nnc(-c2c[nH]c3ccccc23)o1 (stereo unspecified),-1,98,i,0.94,x,x,0.7
CCCn1cc(NC(=O)c2cc(-c3ccccc3)on2)cn1,-5,93,i,0.83,15,67,-2.8
C=CCn1c(C)cc(C(=O)Cn2nc(C(=O)O)c3ccccc3c2=O)c1C,-7,99,i,0.96,-21,148,x
CCCCC(=O)Nc1nc2ccc(C(=O)OC)cc2s1,6,109,i,0.91,0,118,x
CCC(C)c1ccccc1NC(=O)COC(=O)c1ccc(N2CCCC2)c([N+](=O)[O-])c1 (stereo unspecified),-1,96,i,1.1,-12,68,-0.5
Cc1nn2cc(-c3ccc(Cl)cc3)cnc2c1Cl,3,96,i,0.95,38,138,x
CC(C)(C)OC(=O)N/N=C/c1ccc(C(=O)O)cc1,-1,105,i,0.9,x,x,-0.6
COc1ccc(C2/C(=C(/O)c3ccccc3)C(=O)C(=O)N2CO)cc1 (stereo unspecified),1,114,i,0.97,-21,113,-0.2
COc1cccc(-n2ccnc2SCC(=O)N2CCc3ccccc32)c1,-5,107,i,1.1,9,132,1.0
NC(=O)COc1cccc2cccnc12,-6,104,i,0.84,0,50,-4.3
O=C(Nc1cccc(F)c1)NC1(C(=O)N2CCN3CCCC3C2)CCCCC1 (stereo unspecified),-5,91,i,0.99,-381,98,-1.7
COc1ccc2c(c1)C(C)=CC(C)(C)N2C(=O)Nc1ccccc1,-1,78,i,1.1,-8,80,-0.2
Cc1ccccc1OCCSCc1nc2ccccc2[nH]1,-2,109,i,1.1,-12,55,-0.2
O=C(Oc1ccc(-c2nnco2)cc1)N1CCCCC1,-9,83,i,1,-35,148,-0.9
O=C(N=Nc1c(O)[nH]c2ccccc12)c1cccc(S(=O)(=O)N2CCCCC2)c1,-8,96,i,0.69,-32,94,0.5
Cc1ccc(C2CC(C(F)(F)F)n3nc(C(=O)NCCN4CCOCC4)cc3N2)cc1 (stereo unspecified),-3,99,i,0.93,-3,76,-2.7
CCOCCCNC(=O)CCCOc1ccccc1,6,95,i,0.92,-233,71,-4.8
Cc1ccc(NC(=O)c2ccc(OC(=O)COc3ccc(Cl)cc3C)cc2)cc1,-2,89,i,0.67,-25,76,-2.0
O=C(c1ccc(F)cc1)N1C2CCC1CC(O)(c1ccc(F)cc1)C2 (stereo unspecified),-4,102,i,0.84,-3,34,-2.0
C/C(=N\NC(=O)c1cccc(C)c1)c1cccc(NC(=O)c2ccco2)c1,1,114,i,0.81,x,x,-0.9

# Entries above that contain a cyano group (three):
SMILES,PKD1 kinase inh,RGS16-Gao HTS,HSV augment,HSV augment primary fold,INS promoter inh,INS promoter inh cell count,GALR2 agonist
N#C/C(=C(O)\C=C\c1ccccc1)c1nc2ccccc2[nH]1,x,97,i,0.9,x,x,x
CCOC(=O)C1=C(SCC(=O)Nc2ccccc2)NC(=O)C(C#N)C12CCCCC2 (stereo unspecified),-2,102,i,0.94,0,104,-0.2
COCc1cc(C)nc(OCC(=O)N/N=C/c2ccco2)c1C#N,-1,109,i,0.98,0,116,-0.3
